Lassa entry inh – inhibitors of Lassa virus binding or cell entry; Lassa virus pseudotype entry inhibition, cell reporter; control for the full effect not named in the record; Potency, µM (highest dose often 37.9 µM), inactives show at the highest dose activity change, negative = inhibition, hits mostly inhibitors; 300,000 tested, 1.2% active; AID 540256; active means well fitted inhibition curve with a large enough effect; inconclusive means small, poorly fitted or top-dose-only effect, or effect the other way; inactive means flat fitted curve, though single readings scatter; tested in HEK293 cells; further: on the % scale 0 is the no-effect control and ±100 the full control effect; nearly all actives have a fitted effect of over 50% in size; luciferase read-out
Cruzain inh noDet – cruzain (T. cruzi) inhibition without detergent | P25779 | purified cruzain, Z-FR-AMC fluorescence, no detergent | Potency, µM, inactives show max response, negative = inhibition, actives largely listed as inhibitors | 200,000 tested, 2.3% active; active means well fitted curve in the direction sought with a large enough effect; inconclusive means small, poorly fitted or top-dose-only effect, or another doubt; inactive means no such curve, though single readings can be large; an effect the other way counts as inactive or inconclusive;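 further: plate controls were enzyme without inhibitor for no effect and buffer without enzyme for full effect; nearly all actives have a fitted effect of over 40% in size; top concentration of the series not given in the record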
Target sequence (P25779 123-467 limits assumed): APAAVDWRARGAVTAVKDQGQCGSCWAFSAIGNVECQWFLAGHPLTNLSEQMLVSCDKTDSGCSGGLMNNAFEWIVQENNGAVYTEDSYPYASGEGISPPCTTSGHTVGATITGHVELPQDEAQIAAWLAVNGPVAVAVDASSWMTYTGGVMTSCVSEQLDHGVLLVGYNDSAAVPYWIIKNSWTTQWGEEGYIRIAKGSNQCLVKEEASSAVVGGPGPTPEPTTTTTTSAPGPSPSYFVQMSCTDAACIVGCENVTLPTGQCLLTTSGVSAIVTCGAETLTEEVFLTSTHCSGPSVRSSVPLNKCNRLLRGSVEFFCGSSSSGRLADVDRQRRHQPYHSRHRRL
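Detergent-free condition (0.00005% Triton X-100) in acetate buffer pH 5.5 with DTT. 1.5 nM enzyme and compound were pre-mixed 15 min, then 2 uM Z-FR-AMC substrate added; reaction progress from fluorescence change between first and third reads (60 s).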
MARV entry inh – inhibitors of Marburg virus binding or cell entry; Marburg virus pseudotyped entry inhibition, cell reporter; control for the full effect not named in the record; about a third of the inactives were read at about 46 µM; Potency, µM (series often up to 37.8 µM), for the others: at the top dose activity change, negative = inhibition, usual class: inhibitors; 300,000 tested, 1.8% active; AID 540276; active = well fitted inhibition curve with a large enough effect; inconclusive = small, poorly fitted or top-dose-only effect, or effect the other way; inactive = flat fitted curve, though single readings scatter; tested in HEK293 cells; about a fifth of its hits are not listed in these tables; further: on the % scale 0 is the no-effect control and ±100 the full control effect; luciferase read-out
NS1 function inh – blocks influenza NS1 protein function; Potency, µM (doses to about 46.1 µM), for the others: at the highest dose activity, positive = more growth; S. cerevisiae slowed by influenza A NS1, growth recovery by OD600; 270,000 tested, 0.4% active; further: actives are rising curves; nearly all actives have a fitted effect of over 50% in size
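OD600 was taken as the measure of yeast growth restored by compound in an NS1-expressing S. cerevisiae strain. Cells had been washed out of glucose medium and diluted 1:100 into galactose -URA medium, pH 6.0.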
SARS PLP yeast – blocks SARS-CoV papain-like protease in a yeast assay; S. cerevisiae expressing SARS-CoV PLpro, growth rescue; control for the full effect not named in the record; Potency, µM (top dose mostly 32.9 µM), without a hit: top-dose activity, positive = growth rescue; 330,000 tested, 0.19% active; further: 0% is about no effect; nearly all actives have a fitted effect of over 55% in size; growth read by luminescence after 48 h
RE007 growth inh – less growth of the S. pombe RE007 Vpr strain; S. pombe RE007 Vpr strain, BacTiter-Glo ATP luminescence, 24 h; control for the full effect not named in the record; Potency, µM (doses to about 92.2 µM), without a hit: top-dose activity change, negative = less growth; 360,000 tested, 0.21% active; active = well fitted falling curve with a large enough effect; inconclusive = small, poorly fitted or top-dose-only effect; inactive = no such curve, though single readings can be large or run the other way;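 further: on the % scale 0 is the no-effect control and ±100 the full control effect; nearly all actives have a fitted effect of over 50% in size; the assay follows cell death caused by Vpr and the record does not say whether a fall means rescue or toxicity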
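Fission yeast RE007 carrying one integrated HIV-1 vpr copy, seeded at OD 0.01 in PMG+AL medium with 23 nL pinned compound. Grown 24 h at 30 degrees; viability read by BacTiter-Glo luminescence after 5 min.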
2A StopGo – lowers the luciferase signal of an FMDV 2A StopGo reporter; human cells with a luciferase reporter of 2A StopGo recoding; control for the full effect not named in the record; Potency, µM (doses to about 57.9 µM), without a hit: top-dose signal change, negative = less light; 410,000 tested, 1.2% active; AID 1159524; active = well fitted falling curve with a large enough effect; inconclusive = small, poorly fitted or top-dose-only effect; inactive = no such curve, though single readings can be large or run the other way; tested in HEK293T cells; further: on the % scale 0 is the no-effect control and ±100 the full control effect; nearly all actives have a fitted effect of over 45% in size; luciferase light after 4 h
Cruzain inh Det – inhibitors of Trypanosoma cruzi cruzain with detergent; P25779; purified cruzain, Z-FR-AMC fluorescence, 0.01% Triton; Potency, µM, for the others: max response, negative = inhibition, hits mostly inhibitors; 200,000 tested, 0.43% active; AID 1478; active means well fitted curve in the direction sought with a large enough effect; inconclusive means small, poorly fitted or top-dose-only effect, or another doubt; inactive means no such curve, though single readings can be large; an effect the other way counts as inactive or inconclusive;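 further: plate controls were neutral wells for no effect and buffer without enzyme for full effect; nearly all actives have a fitted effect of over 40% in size; top concentration of the series not given in the record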
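Cysteine protease activity tested under reducing, mildly acidic conditions (100 mM sodium acetate pH 5.5, 5 mM DTT) plus 0.01% Triton X-100. Cruzain 1.5 nM; substrate Z-FR-AMC 2 uM; 15 min compound preincubation at room temperature.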
* hit, by the source's call; u = inconclusive; x = not tested or not shown; & = joins results of further samples; [ ] = another dose, or the depositor's remark. Unless noted, the call rests on the fitted dose curve; in most records, active means well fitted rising curve with a large enough effect; inconclusive means small, poorly fitted or top-dose-only effect; inactive means no such curve, though single readings can be large or run the other way. Potency means the concentration at half of the fitted maximal effect. Rows were taken by chance. Share with any hit: about 4.7%.

SMILES	Lassa entry inh	Cruzain inh noDet	MARV entry inh	NS1 function inh	SARS PLP yeast	RE007 growth inh	2A StopGo	Cruzain inh Det
O=C1C=C(O)C(n2cncn2)C(c2ccc3c(c2)OCO3)C1 (centres undefined)	21%	x	6%[46.1 µM]	x	0%	-4%	-4%	x
CC(C)c1cnc2c(c1SCC(=O)Nc1ccc(OC(F)(F)F)cc1)c(=O)n(C)c(=O)n2C	-6%[46.1 µM]	-5%	x	x	x	x	-25%	0.3%
CN1C2CCC1CC(NC(=O)c1cc(Cl)cc3[nH]cnc13)C2 (centres undefined)	15%	x	-25%	9%	-4%	11%	-7%	x
COCCn1c(-c2ccc(OC)cc2)cnc1SCC(=O)Nc1ccc(OC)cc1OC	u	13%	u	-22%	0%	-14%	-21%	-6.7%
CCN(CC)S(=O)(=O)c1ccc(N=N/C(C(C)=O)=C(/C)O)cc1	-13%	4%	20%	3%	3%	10%	-10%	-8.5%
CC/C(C)=N\N=C\c1c(O)n(CC)c2cc(C3=NNC(=O)CC3)ccc12	-23%	u	-10%	u	7%	0%	0%	-9.7%
Cc1c(C(=O)N2CCCCC2)c(S(=O)(=O)N2CCN(c3ccccc3F)CC2)c(C)n1C	4%[46.1 µM]	x	8%[46.1 µM]	-5%	-1%	11%	5%	x
CCOc1ccc(NC(=O)CSc2nc3cccnc3n2CC)cc1	-15%	9%	-15%	-13%	-9%	-7%	-15%	0.5%
O=C(COC(=O)c1ccc(F)c(S(=O)(=O)N2CCOCC2)c1)Nc1ccc2c(c1)OCO2	11%	x	0%	x	0%	-5%	-14%	x
COc1ccc(CCNC(=O)c2nc(SCc3ccc(F)cc3)ncc2Cl)cc1OC	-22%[46.1 µM]	u	u	x	x	x	u	-2.0%
N#Cc1c(NC(=O)c2ccccc2)sc2c1CCCCC2	u	-1%	u	1%	-1%	5%	-1%	-10%
O=C(COC(=O)c1cccc(S(=O)(=O)N2CCCCC2)c1)NC1CCCCC1	-1%	x	u	x	3%	0%	-16%	x
Cn1cnnc1Sc1ccc(C(=O)OCC(=O)Nc2cc(Cl)cc(Cl)c2)cc1[N+](=O)[O-]	2%	u	-15%	u	7%	0%	-24%	-5.1%
Cc1sc(NC(=O)c2ccco2)c(C(Nc2ccccn2)c2ccccc2)c1C (centres undefined)	u	0%	-18%	5%	-30%	2%	0%	-6.7%
COc1ccccc1CNC(=O)COC(=O)CC1CC2CCC1C2 (centres undefined)	-7%	x	-9%	x	-1%	28%	-13%	x
COCCN1Cc2cccc(C(=O)NC3CCCCCC3)c2C1=O	-7%	7%	7%	-56%	-62%	-8%	-6%	-0.4%
CC(C)(C)c1ccc(-n2ncc3c2CCCC3NC(=O)CCN2CCCO2)cc1 (centres undefined)	x	x	x	5%	3%	-7%	-24%	x
Cc1ccc(OCC(=O)OCc2cc(=O)n3nc(-c4cccs4)sc3n2)cc1	2%[46.1 µM]	-9%	x	x	x	x	-14%	-2.7%
CCc1ccc(S(=O)(=O)NCc2ccc(N3CCN(C)CC3)cc2)cc1	0%[46.1 µM]	x	-3%[46.1 µM]	-1%	-2%	-14%	2%	x
CC(c1ccccc1C(O)c1ccccc1)N(C)C (centres undefined)	0%	-1%	-30%	14%	1%	0%	x	3.3%
COc1cc(-c2nnc(SCC(=O)c3ccccc3)o2)cc(OC)c1OC	-24%	u	2%	-15%	-9%	-6%	x	-5.9%
O=C(O)c1ccc(-n2nc(-c3ccccc3)c3ccccc3c2=O)cc1	u	x	-1%[46.1 µM]	-70%	0%	-2%	-5%	x
COc1ccccc1CNC(=O)c1ccc(OC(F)F)c(OC)c1	-2%	5%	-2%	-5%	0%	-15%	-8%	0.2%
Cn1nnnc1SCCNCC#Cc1ccccc1	-11%	-5%	-5%	8%	3%	-19%	17%	2.3%
CC(OC(=O)c1ccc(Cl)c(S(=O)(=O)N2CCOCC2)c1)C(=O)Nc1ccc(S(N)(=O)=O)cc1 (centres undefined)	10%	x	1%[46.1 µM]	x	2%	14%	-20%	x
Later entries.
SMILES	Lassa entry inh	Cruzain inh noDet	MARV entry inh	NS1 function inh	SARS PLP yeast	RE007 growth inh	2A StopGo	Cruzain inh Det
Cc1onc(-c2ccccc2Cl)c1C(=O)N1CCc2ccccc21	-4%	0%	4%	-48%	1%	0%	u	-0.1%
CCOc1ccc(NC(=O)CCC(=O)OC)cc1	9%	8%	4%	-9%	-1%	7%	12%	-1.1%
CCOC(=O)c1ccc(N=Cc2cnc(N)nc2N)cc1	-7%[46.1 µM]	x	0%	x	x	-14%	16%	x
Nc1ccc(Oc2cc(N)cc(Oc3ccccc3)c2)cc1	u	x	u	-4%	2%	-28%	31%[activator]	x
COc1ccc(N2C(=O)NC3CC2(C)Oc2ccc(Cl)cc23)cc1OC (centres undefined)	u	9%	u	-13%	-1%	2%	-19%	9.7%
Cc1ccc(Oc2ncnc(N)c2[N+](=O)[O-])cc1	-2%	x	27%[46.1 µM]	x	0%	12%	-7%	x
COc1cc2nc(=S)n(CCCN3CCOCC3)c(N)c2cc1OC	10%	x	u	x	3%	-1%	-3%	x
O=C(CNC(=O)c1ccc2c(c1)OCCO2)N/N=C/c1ccc([N+](=O)[O-])cc1	3%[46.1 µM]	x	5%[46.1 µM]	8%	0%	0%	-4%	x
Cc1cc(NS(=O)(=O)c2ccc(NC(=O)CCc3ccccc3)cc2)no1	11%	-9%	0%	3%	9%	-17%	-17%	1.8%
CCc1ccc(OCC(=O)NNC(=O)Cc2ccc(S(=O)(=O)N3CCOCC3)s2)cc1	6%	x	-7%	x	-4%	-17%	-10%	x
O=C(Cc1c(Cl)cccc1Cl)Nc1ccc(S(=O)(=O)Nc2ncccn2)cc1	-37%	x	4%[46.1 µM]	8%	17%	0%	5%	x
CCn1c(Cc2ccccc2)nnc1SCC(=O)Nc1cc(C)on1	16%	-9%	15%	-2%	-1%	22%	8%	2.5%
Cc1ccc([N+](=O)[O-])cc1Nc1nc(N2CCCC2)nc(N2CCCC2)n1	u	x	0%	-3%	0%	2%	-12%	x
O=C(O)C1CCCCC1C(=O)Nc1ccc(S(=O)(=O)N2CCCCC2)cc1 (centres undefined)	-20%[46.1 µM]	x	-4%[46.1 µM]	8%	2%	5%	0%	x
Cc1nn(-c2ccccc2)c(C)c1C(=O)OCC(=O)NC(=O)NC1CCCC1	-16%	8%	-20%	5%	12%	6%	0%	-4.6%
CSc1ccc(CCNc2ncnc3onc(C)c23)cc1	u	12%	x	x	x	x	-2%	0.7%
COc1cc(NC(=O)c2ccc3nsnc3c2)cc(OC)c1OC	x	x	x	0%	-3%	5%	-3%	x
COc1ccc2nc(NC(=O)Cn3cnc4ccccc4c3=O)sc2c1	x	x	x	-1%	3%	2%	27%	x
COc1ccccc1CNC(=O)COC(=O)c1ccc(S(=O)(=O)N2CCCC2)cc1	9%	-2%	3%	7%	11%	3%	2%	5.3%
O=C(NC(=S)Nc1ccc2cn[nH]c2c1)c1ccccc1	29%	x	3%[46.1 µM]	x	-2%	-5%	51%[activator]	x
COc1ccccc1/C=C/C(=O)c1ccc(Cl)cc1	4%	11%	13%	-4%	-12%	-28%	-30%	-1.1%
CC(=O)c1ccc(N2CCN(C(=O)CCCc3nc4ccccc4s3)CC2)cc1	-47%	26%	-16%	-21%	16%	5%	-6%	-6.3%
O=C(CSc1n[nH]c(-c2cccnc2)n1)Nc1ccc([N+](=O)[O-])cc1Br	x	x	1%[46.1 µM]	14%	0%	-11%	u	x
Cc1ccccc1C(=O)Nc1ccccc1-c1nnn(CC(=O)Nc2ccc3c(c2)OCCO3)n1	-20%	u	u	0%	4%	-8%	u	3.7%
CCc1cc(=O)oc2cc(C)cc(OC(C)C(=O)NC3CCN(Cc4ccccc4)CC3)c12 (centres undefined)	-23%[46.1 µM]	x	u	4%	-4%	1%	4%	x
Carrying on:
SMILES	Lassa entry inh	Cruzain inh noDet	MARV entry inh	NS1 function inh	SARS PLP yeast	RE007 growth inh	2A StopGo	Cruzain inh Det
Cc1nc(-c2cccc(NS(=O)(=O)c3cccc4ccccc34)c2)cs1	5%	u	u	11%	-15%	-1%	76%[activator]	-0.3%
CCOc1ccccc1CNC(=O)CCCn1ncn2c(cc3occc32)c1=O	-1%[46.1 µM]	-4%	6%&6%[46.1 µM]	12%	0%	12%	-12%&1%	-3.8%
Cc1cc(=O)c(C(=O)Nc2cccc(N3CCCC3=O)c2)nn1-c1ccccc1Cl	-10%	x	-29%	x	1%	-10%	6%	x
COc1ccc(C2CC(c3cccc(C)c3)n3nc(N)nc3N2)cc1 (centres undefined)	x	-4%	-1%	-11%	6%	28%	-1%	-0.2%
COc1ccc(-c2cc(C(=O)N3CCN(c4ccc(F)cc4)CC3)no2)cc1	u	x	u	-1%	0%	-10%	u	x
CC1(C)C2CCC(C2)C1C/C=N/NC(N)=S (centres undefined)	1%	x	u	2%	5%	3%	u	x
S=C(Nc1cccc(Cl)c1)Nc1ccc2c(c1)OCCO2	10%[46.1 µM]	x	u	-7%	2%	11%	16%	x

Ordered by heavy-atom count (low to high): some entries from above
SMILES	Lassa entry inh	Cruzain inh noDet	MARV entry inh	NS1 function inh	SARS PLP yeast	RE007 growth inh	2A StopGo	Cruzain inh Det
CC(c1ccccc1C(O)c1ccccc1)N(C)C (centres undefined)	0%	-1%	-30%	14%	1%	0%	x	3.3%
Cc1nc(-c2cccc(NS(=O)(=O)c3cccc4ccccc34)c2)cs1	5%	u	u	11%	-15%	-1%	76%[activator]	-0.3%
Cc1cc(NS(=O)(=O)c2ccc(NC(=O)CCc3ccccc3)cc2)no1	11%	-9%	0%	3%	9%	-17%	-17%	1.8%
O=C(CNC(=O)c1ccc2c(c1)OCCO2)N/N=C/c1ccc([N+](=O)[O-])cc1	3%[46.1 µM]	x	5%[46.1 µM]	8%	0%	0%	-4%	x
CCc1cc(=O)oc2cc(C)cc(OC(C)C(=O)NC3CCN(Cc4ccccc4)CC3)c12 (centres undefined)	-23%[46.1 µM]	x	u	4%	-4%	1%	4%	x

Screening data as filed in PubChem.
